Assay outcomes as filed in PubChem.
HP1b chromo inh: HP1-beta chromodomain-methylated histone interaction inhibition. AlphaScreen HP1-beta / biotin-H3K9me3 peptide binding. Potency, µM (highest dose often 114 µM), without a hit: top-dose activity change, negative = inhibition, hits mostly inhibitors. 0.56% of 390,000 active. AID 540317; also: potency is read from the fitted curve at half-maximal effect; nearly all actives have a fitted effect of over 70% in size; inactives centre near 23
Target sequence (P83916 whole entry, looked up): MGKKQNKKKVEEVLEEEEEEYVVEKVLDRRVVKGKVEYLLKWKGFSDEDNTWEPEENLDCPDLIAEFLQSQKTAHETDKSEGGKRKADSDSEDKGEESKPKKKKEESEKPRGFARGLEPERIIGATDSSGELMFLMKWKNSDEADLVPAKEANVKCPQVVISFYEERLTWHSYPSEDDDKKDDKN
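HP1-beta protein (50 nM final) preincubated 30 min at room temperature with biotinylated H3(1-18)K9me3 peptide (50 nM) in PBS pH 7.4, 0.01% Tween-20, then compound added for 30 min. AlphaScreen streptavidin donor/nickel chelate acceptor beads (10 ug/mL final), 30 min dark, luminescence read.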
G9a inh: G9a (human) methyltransferase inhibition; Q96KQ7; G9a H3K9 monomethylation, AlphaScreen, 2 h; Potency, µM (highest dose often 102 µM), for inactives: top-dose activity, negative = inhibition, most hits filed as inhibitors; 8.8% of 350,000 active; AID 504332; also: potency is read from the fitted curve at half-maximal effect; % is scaled to controls: 0 for no effect and ±100 for the full control effect; nearly all actives have a fitted effect of over 75% in size
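G9a (20 nM) preincubated 15 min RT with compounds, then 500 nM biotinylated H3K9 peptide and 20 uM SAM added; 2 h RT reaction. Monomethyl-H3K9 product detected by AlphaScreen with anti-H3K9me1 antibody, streptavidin donor and anti-rabbit IgG acceptor beads.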
RGS4 inhibitor: human RGS4 inhibition; Potency, µM (series often up to 114 µM), inactives show at the highest dose activity change, negative = inhibition, most hits filed as inhibitors; Transcreener GDP fluorescence polarization, RGS4-accelerated GTP hydrolysis; P49798; 0.039% of 390,000 active; also: potency is read from the fitted curve at half-maximal effect; % is scaled to controls: 0 for no effect and ±100 for the full control effect; nearly all actives have a fitted effect of over 75% in size; some results filed as inactive show a strong effect at the top dose
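MLSMR compounds (23 nl, pin-transferred) preincubated 10 min at room temperature with a 500nM (2x) first reagent, then RGS4 at 900nM (2x) plus Transcreener GDP mix added; fluorescence polarization (620/688 nm) read before and after 90 min at 30 °C.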
GLS inh: blocks human kidney-isoform glutaminase activity; O94925; GLS enzymatic activity, qHTS titration; Potency, µM (titrated, usually from 45.5 µM), inactives show at the highest dose activity change, negative = inhibition, most hits filed as inhibitors; 0.21% of 410,000 active; AID 624170; also: potency is read from the fitted curve at half-maximal effect; % is scaled to controls: 0 for no effect and ±100 for the full control effect
Target sequence (O94925 whole entry, looked up, canonical isoform): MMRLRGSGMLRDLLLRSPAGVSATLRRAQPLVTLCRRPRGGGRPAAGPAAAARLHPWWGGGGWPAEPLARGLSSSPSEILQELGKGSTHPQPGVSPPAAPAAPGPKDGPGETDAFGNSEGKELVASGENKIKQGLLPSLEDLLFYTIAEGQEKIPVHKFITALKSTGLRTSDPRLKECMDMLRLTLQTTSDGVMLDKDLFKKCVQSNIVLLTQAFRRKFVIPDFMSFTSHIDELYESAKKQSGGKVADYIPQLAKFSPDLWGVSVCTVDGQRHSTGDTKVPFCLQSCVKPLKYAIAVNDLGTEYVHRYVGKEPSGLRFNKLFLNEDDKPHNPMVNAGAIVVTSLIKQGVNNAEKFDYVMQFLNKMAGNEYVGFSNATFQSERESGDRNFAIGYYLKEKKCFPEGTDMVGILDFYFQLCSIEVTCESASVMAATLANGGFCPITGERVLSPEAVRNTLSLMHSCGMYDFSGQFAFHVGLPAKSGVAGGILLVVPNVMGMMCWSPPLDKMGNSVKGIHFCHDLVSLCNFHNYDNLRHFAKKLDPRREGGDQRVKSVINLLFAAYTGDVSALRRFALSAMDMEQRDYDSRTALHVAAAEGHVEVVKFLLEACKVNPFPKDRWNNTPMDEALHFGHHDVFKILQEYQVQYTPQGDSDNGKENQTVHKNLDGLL
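Human kidney-isoform GLS in 45 mM KH2PO4 pH 8.2, 0.02% Tween-20, with compound, started with 1mM L-Glutamine (added stock). Glutamate oxidase/HRP/Amplex red coupled fluorescence read at start and after 30 min at RT.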
JMJD2A Tudor inh: JMJD2A Tudor domain (human) inhibition. O75164. AlphaScreen JMJD2A-Tudor / H3K4me3 peptide binding. Potency, µM (titrated, usually from 114 µM), without a hit: at the top dose activity change, negative = inhibition, hits mostly inhibitors. 4.4% of 390,000 active. AID 504339; also: potency is read from the fitted curve at half-maximal effect; % is scaled to controls: 0 for no effect and ±100 for the full control effect; nearly all actives have a fitted effect of over 50% in size
ERG Ets-DNA blk: inhibitors of human ERG Ets domain-DNA interaction. fluorescence polarization, His-ERG Ets domain / labelled DNA. P11308. Potency, µM (series often up to 76.9 µM), without a hit: at the top dose FP activity, negative = inhibition, hits mostly inhibitors. 0.028% of 370,000 active; active = well fitted inhibition curve with a large enough effect in the polarisation, with a control signal flat; inconclusive = small, poorly fitted or top-dose-only effect, or effect the other way, or a change in a side signal; inactive = no such curve, though single readings can be large or run the other way; the % refers to the polarisation;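 also: polarization taken with two DNA probes labelled with fluorescein and Texas red; potency is read from the fitted curve at half-maximal effect; % of control where 0% means no effect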
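His-tagged ERG Ets domain (1 uM in the protein solution; 300mM KCl, 50mM Tris-HCl, 1mM EDTA, 1mM DTT, pH 7.5) received compound, then a probe mix of 5 nM fluorescein-DNA and 100nM Texas-615-DNA. Fluorescence polarization was read for both dyes.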
PI4K2A inh: inhibitors of human PI4K2A | Q9BTU6 | purified PI4K2A, ADP-Glo luminescence, 1 h; active compounds read low | activity change, negative = inhibition, % at 76.9 µM | 0.13% of 420,000 active; in the data active = activity change below about -50%; inconclusive = mostly about -30% to -49%;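 also: -100% = wells without enzyme as full effect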
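PI4K2A activity was measured by ADP-Glo luminescence: enzyme (4 ug/mL stock) and phosphatidylinositol (1.2 mM stock) in Tris pH 7.5/MgCl2/EGTA/Triton X-100 buffer were reacted with ATP (300 microM stock) for one hour at ambient temperature.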
ALOX12 inh: ALOX12 (human) lipoxygenase inhibition | 1.1% of 580,000 active | P18054 | purified 12hLO, xylenol orange hydroperoxide absorbance | Potency, µM (doses to about 108 µM), for inactives: at the top dose activity change, negative = inhibition, usual class: inhibitors; also: potency is read from the fitted curve at half-maximal effect; % is scaled to controls: 0 for no effect and ±100 for the full control effect
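Purified human 12hLO (150 nM final) in 25 mM Hepes, 0.01% Triton X-100, pH 7.0 was preincubated 15 min at room temperature with compound. Then 40 uM arachidonic acid was added, 30 min. Hydroperoxide was read by Fe-XO absorbance ratio 573/405 nm.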
* = called active by the depositor; ? = inconclusive; . = not tested or not shown; & = joins results of further samples; [ ] = another dose, or the depositor's remark. Unless noted, calls follow the shape of the dose curve; as a rule, active = well fitted curve in the direction sought with a large enough effect; inconclusive = small, poorly fitted or top-dose-only effect, or another doubt; inactive = no such curve, though single readings can be large; an effect the other way counts as inactive or inconclusive. These rows are one share of the data, so the mix of outcomes need not match the whole.

HP1b chromo inh | G9a inh | RGS4 inhibitor | GLS inh | JMJD2A Tudor inh | SMILES | ERG Ets-DNA blk | PI4K2A inh | ALOX12 inh
33% | 45µM* | -1% | 6% | 3% | COc1ccc(CNc2ccc(C)c(C)c2)cc1 | -6% | -16 | -21%
? | 7.1µM* | 10% | 4% | -19% | Cc1cccc(-c2nc(C#N)c(N3CCCCC3)o2)c1 | 26% | 0 | 0%
30% | -21%[59 µM] | -9% | 8% | -34% | COc1cccc(N2CCN(Cc3cc(=O)oc4cc(C)ccc34)CC2)c1 | -1% | 5 | -17%
-29% | 25µM* | -11% | 29% | ? | CCN(CCCNC(=O)CCc1nc(-c2ccc(OC)cc2)no1)c1cccc(C)c1 | 0% | 0 | 0%
-1% | ? | 8% | -18% | ? | CCCOc1ccc(-c2nc(N3CCN(CC)CC3)c3ccccc3n2)cc1 | -6% | -4 | 0%
? | 40µM* | -25% | 7% | ? | COCC(C)N=C1NN=C(c2cc(C)n(Cc3ccccc3Cl)c2C)CS1 (stereo not drawn) | 8% | 3 | ?
-16% | . | 23% | -6% | ? | NC(=O)CC(NC(=O)Cc1ccc(Cl)cc1)c1ccc(NC2CC3CCC2C3)c([N+](=O)[O-])c1 (stereo not drawn) | 18% | -3 | ?
? | ? | 12% | 1% | ? | CC1CC(=O)N(c2ccc(NCCc3ccc(O)cc3)c([N+](=O)[O-])c2)C1=O (stereo not drawn) | -4% | 6 | -3%

Further compounds
HP1b chromo inh | G9a inh | RGS4 inhibitor | GLS inh | JMJD2A Tudor inh | SMILES | ERG Ets-DNA blk | PI4K2A inh | ALOX12 inh
47%[activator] | 10µM* | -32% | -17% | 5% | CC(C)CN(C(=O)CSc1nncs1)c1c(N)n(CC(C)C)c(=O)[nH]c1=O | 10% | 5 | 13%
-28% | ? | 10% | 2% | ? | COc1ccc(-n2ccnc2SCC(=O)Nc2ccc(OC)cc2OC)cc1 | -1% | 2 | -7%
18% | 17%[12.7 µM] | -3% | 3% | ? | CC(C)OC(=O)CSc1nnc(-c2ccccn2)n1N | 0% | -6 | ?
31% | 22%[59 µM] | -10% | 13% | -27% | CCc1ccccc1NC(=S)N(CCN(C)C)C(C)c1ccccn1 (stereo not drawn) | 1% | 0 | 22%
25% | 45µM* | 1% | . | 5% | CCN(CC)S(=O)(=O)c1cc(C(=O)Nc2cc(Cl)ccc2N2CCN(C)CC2)ccc1Cl | -2% | 2 | -23%&-7%
42%[activator] | 36%[59 µM] | -4% | 0% | 26% | COc1ccc(C(=O)O/N=C(/C)c2cccs2)cc1 | -2% | -92* | 0%
33% | 6%[59 µM] | 23% | -1% | -8% | O=C(O)c1cc(N2C(=O)CCC2=O)ccc1NCc1cccnc1 | 10% | -1 | 9%
15% | 45µM* | 11% | 13% | ? | CCN(CCNC(=O)c1ccc(CSc2nc3ccncc3[nH]2)cc1)c1ccccc1 | -3% | -3 | 3%[57.4 µM]

Following part
HP1b chromo inh | G9a inh | RGS4 inhibitor | GLS inh | JMJD2A Tudor inh | SMILES | ERG Ets-DNA blk | PI4K2A inh | ALOX12 inh
25% | -29%[59 µM] | 5% | -3% | -14% | COc1ccc(/C=C(\C#N)c2nc(-c3ccc(Cl)c(Cl)c3)cs2)cc1OC | 1% | 2 | -12%
-18% | 1.8µM* | 12% | -1% | ? | COc1ccc(-c2c(C)nn3c(C(F)(F)F)cc(-c4ccccc4)nc23)cc1 | 1% | -1 | -26%
. | 17%[2.33 µM] | . | . | . | CCN1CCN(c2nc(-c3ccncc3)nc3ccccc23)CC1 | . | . | .
36% | -25% | 1% | 18% | 3% | CC(NC(=O)Cc1cccs1)c1ccccc1 (stereo not drawn) | -5% | -1 | -3%
35%[activator] | 13%[2.33 µM] | 7% | -6% | -3% | COc1ccc(CNC(=O)C2CC(c3ccc(F)cc3)=NO2)cc1 (stereo not drawn) | -1% | 5 | -5%
131%[activator] | -3%[0.501 µM] | 15% | 5% | -64% | COc1ccc(-c2sc3ccc(OC)cc3c2C#Cc2ccccn2)cc1 | -2% | -8 | ?
24% | 11%[0.0925 µM] | 43% | 20% | -10% | CC(CCc1ccccc1)NC(=O)CCCn1ncn2c(cc3occc32)c1=O (stereo not drawn) | -10% | 1 | -8%

Whole records from above. Screens in order: HP1b chromo inh | G9a inh | RGS4 inhibitor | GLS inh | JMJD2A Tudor inh | ERG Ets-DNA blk | PI4K2A inh | ALOX12 inh
COc1ccc(-c2c(C)nn3c(C(F)(F)F)cc(-c4ccccc4)nc23)cc1 across the screens: -18% | 1.8µM* | 12% | -1% | ? | 1% | -1 | -26%
COc1ccc(CNC(=O)C2CC(c3ccc(F)cc3)=NO2)cc1 (stereo not drawn) across the screens: 35%[activator] | 13%[2.33 µM] | 7% | -6% | -3% | -1% | 5 | -5%

Molecules from the list above with a halogen, in the order listed:
HP1b chromo inh | G9a inh | RGS4 inhibitor | GLS inh | JMJD2A Tudor inh | SMILES | ERG Ets-DNA blk | PI4K2A inh | ALOX12 inh
? | 40µM* | -25% | 7% | ? | COCC(C)N=C1NN=C(c2cc(C)n(Cc3ccccc3Cl)c2C)CS1 (stereo not drawn) | 8% | 3 | ?
-16% | . | 23% | -6% | ? | NC(=O)CC(NC(=O)Cc1ccc(Cl)cc1)c1ccc(NC2CC3CCC2C3)c([N+](=O)[O-])c1 (stereo not drawn) | 18% | -3 | ?
25% | 45µM* | 1% | . | 5% | CCN(CC)S(=O)(=O)c1cc(C(=O)Nc2cc(Cl)ccc2N2CCN(C)CC2)ccc1Cl | -2% | 2 | -23%&-7%
25% | -29%[59 µM] | 5% | -3% | -14% | COc1ccc(/C=C(\C#N)c2nc(-c3ccc(Cl)c(Cl)c3)cs2)cc1OC | 1% | 2 | -12%
-18% | 1.8µM* | 12% | -1% | ? | COc1ccc(-c2c(C)nn3c(C(F)(F)F)cc(-c4ccccc4)nc23)cc1 | 1% | -1 | -26%
35%[activator] | 13%[2.33 µM] | 7% | -6% | -3% | COc1ccc(CNC(=O)C2CC(c3ccc(F)cc3)=NO2)cc1 (stereo not drawn) | -1% | 5 | -5%

Some of these compounds in order of their number in PI4K2A inh, smallest number first:
HP1b chromo inh | G9a inh | RGS4 inhibitor | GLS inh | JMJD2A Tudor inh | SMILES | ERG Ets-DNA blk | PI4K2A inh | ALOX12 inh
131%[activator] | -3%[0.501 µM] | 15% | 5% | -64% | COc1ccc(-c2sc3ccc(OC)cc3c2C#Cc2ccccn2)cc1 | -2% | -8 | ?
24% | 11%[0.0925 µM] | 43% | 20% | -10% | CC(CCc1ccccc1)NC(=O)CCCn1ncn2c(cc3occc32)c1=O (stereo not drawn) | -10% | 1 | -8%
25% | -29%[59 µM] | 5% | -3% | -14% | COc1ccc(/C=C(\C#N)c2nc(-c3ccc(Cl)c(Cl)c3)cs2)cc1OC | 1% | 2 | -12%
